# Screening data from PubChem.
# Ecoli growth – E. coli growth inhibition, primary screen, OD600; Escherichia coli growth, 23 h; hits give low values; AID 1053175, 2014; 0.21% of 330,000 active; OD600 absorbance (test concentration not listed);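 active = OD600 absorbance below the run mean of sample wells minus 3.6 SD, in any replicate, cut at about 0.56 in these data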;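 also: stock transfer was 300 nL into about 60 µL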
# UCH37 inh – inhibitors of human UCH37 deubiquitinase, primary screen, biochemical, Ub-AMC cleavage, fluorescence | Ubiquitin carboxyl-terminal hydrolase isozyme L5 (Homo sapiens), Q9Y5K5 | purified proteasome/UCH37 | inhibition, % (concentration not given with the values) | 0.33% of 330,000 active | AID 588478, 2011;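 active = mean of two replicates above 20%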;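 also: 0% = compound-free wells with enzyme and 100% = wells lacking proteasome; stock transfer was 100 nL into about 20 µL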
# Target sequence (Q9Y5K5 whole entry, looked up): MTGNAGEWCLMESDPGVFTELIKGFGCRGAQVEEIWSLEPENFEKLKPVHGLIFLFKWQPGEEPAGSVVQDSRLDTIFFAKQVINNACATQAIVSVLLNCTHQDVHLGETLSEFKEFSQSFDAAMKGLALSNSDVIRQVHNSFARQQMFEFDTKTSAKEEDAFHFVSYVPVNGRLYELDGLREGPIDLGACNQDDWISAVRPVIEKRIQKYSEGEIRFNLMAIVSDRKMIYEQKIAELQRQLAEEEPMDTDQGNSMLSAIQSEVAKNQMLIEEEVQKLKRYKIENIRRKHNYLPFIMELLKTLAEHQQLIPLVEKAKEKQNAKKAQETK
#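 Test system – human UCH37 enzyme supplied as purified proteasome complex · Incubation – 30 min preincubation with enzyme, 25 min cleavage at room temperature · Detection – AMC fluorescence from Ub-AMC cleavage, excitation 355 nm, emission 460 nm · Benchmarks – no-proteasome wells (full inhibition) and compound-free wells (no inhibition)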
# The depositor's hits bear a star. Some of the compounds tested; count on the stated rates, not on these rows.
SMILES,Ecoli growth,UCH37 inh
CCCC(=O)Nc1ccc(C(=O)NN=C2CC(=O)CC(C)(C)C2)cc1,0.656,5.8
Cc1nnc(NN=Cc2ccccc2C(F)(F)F)n1N,0.684,6.3
COCCCNC(=S)NN=Cc1ccc(N(C)C)cc1Cl,0.674,-33.3
Cc1ccc(C(=O)NN=Cc2cc(Br)c(Br)o2)cn1,0.657,27.8*
O=C(NN=Cc1ccoc1)c1ccc(Cl)cc1Cl,0.66,0.9
CCn1ncc(C=NN=C2CCC3C4CCc5cc(O)ccc5C4CCC23C)c1C (stereo not given),0.764,2.7
Cc1ccc(-n2[nH]c(C)c(C=NN3C(=O)c4cccc5cccc(c45)C3=O)c2=O)cc1,0.638,9.8
N#CC(=NNc1ccccc1)C(=N)N1CCOCC1,0.702,17.3
O=C(CCc1ccccc1)NN=Cc1cc(Br)ccc1O,0.67,0.6
COc1cc(C(=O)NCC(=O)NN=Cc2c(C)[nH]c3ccccc23)cc(OC)c1OC,0.665,6.6
Cc1cc(C)n(CCC(=O)NN=Cc2ccc(O)cc2)n1,0.718,1.8
Cc1cccc(N(CC(=O)NN=Cc2ccccc2C(=O)O)S(C)(=O)=O)c1C,0.69,2.9
O=[N+]([O-])c1cc(Cl)cc(C=Nn2cnnc2)c1O,0.687,5.8
COc1cc(/C=C/[N+](=O)[O-])ccc1OCc1cccc(C(=O)O)c1,0.728,1.7
C=CCN1C(=O)CSC1=NN=Cc1cccc([N+](=O)[O-])c1,0.705,2.1
COc1ccc(/C=C/C(=O)NCC(=O)NN=Cc2cccnc2)cc1,0.694,4.3
O=C(NN=Cc1ccc(O)cc1O)C1CC1,0.667,-11.8
Cc1nn(-c2ccccc2)c(Cl)c1C=NNC(=O)c1[nH]ncc1Br,0.697,0.6
C=CCn1c(=C(C#N)c2nnc3n2CCCCC3)sc(=Cc2ccc(O)cc2)c1=O,0.651,9.2
O=S(=O)(NN=Cc1cccnc1)c1ccccc1,0.697,6.1

# Another view of part of the listing above:
Molecule	Ecoli growth	UCH37 inh
C=CCN1C(=O)CSC1=NN=Cc1cccc([N+](=O)[O-])c1	0.705	2.1
COc1ccc(/C=C/C(=O)NCC(=O)NN=Cc2cccnc2)cc1	0.694	4.3

# Single entries from the list.
# Result of Cc1ccc(C(=O)NN=Cc2cc(Br)c(Br)o2)cn1 under UCH37 inh: 27.8*
# Result of COc1cc(/C=C/[N+](=O)[O-])ccc1OCc1cccc(C(=O)O)c1 under Ecoli growth: 0.728
# Result of C=CCN1C(=O)CSC1=NN=Cc1cccc([N+](=O)[O-])c1 under Ecoli growth: 0.705
# Result of O=C(NN=Cc1ccoc1)c1ccc(Cl)cc1Cl under Ecoli growth: 0.66
# Result of O=[N+]([O-])c1cc(Cl)cc(C=Nn2cnnc2)c1O under Ecoli growth: 0.687
# Result of Cc1ccc(-n2[nH]c(C)c(C=NN3C(=O)c4cccc5cccc(c45)C3=O)c2=O)cc1 under UCH37 inh: 9.8

# (continued)
SMILES,Ecoli growth,UCH37 inh
Cc1ccc(C=NNC(=S)NC2CCS(=O)(=O)C2)cc1 (stereo not given),0.688,6.5
CC(=NNC(=O)Cc1cccc2ccccc12)c1ccncc1,0.666,3.8
O=[N+]([O-])c1ccc(O)c(C=NNC(=S)Nc2ccc(Cl)cc2Cl)c1,0.695,2.1
COc1cc(C=NNC(N)=O)ccc1OCC(=O)N1C(C)CCCC1C (stereo not given),0.697,2.2
CC1C2CC(C(CN(C)C)C2=NO)C1(C)C (stereo not given),0.715,2.0
Oc1ccc(C=NNC(=S)NC2CC3CCC2C3)cc1 (stereo not given),0.636,3.6
FC(F)(F)c1ccc(C=NNC(=S)NC2CCCCC2)cc1,0.688,2.8
Cc1nc(C#N)c(NN=Cc2c(F)cccc2Cl)o1,0.721,5.6
CC(=NNC(=O)c1ccc(Cl)cc1)c1ccc(N2CCOCC2)cc1,0.682,-36.9
CC(=NNC(=O)c1nnn(-c2nonc2N)c1CN(C)c1ccccc1)c1ccc(O)cc1,0.64,5.3
Cc1ccc(C=NN2CCN(Cc3cccc4ccccc34)CC2)s1,0.682,3.3
COc1ccc(Nc2nc(NCc3ccco3)nc(NN=Cc3ccc(O)cc3)n2)cc1,0.708,4.5
CC1C(=O)NN=C1C(=O)NN=C/C(Br)=C/c1ccccc1 (stereo not given),0.644,9.5
COC(=O)NN=Cc1ccc(OC(=O)c2ccco2)c(OC)c1,0.668,2.4
O=C(NN=Cc1cn(-c2ccccc2)nc1-c1cccnc1)c1cccnc1,0.71,5.0
CCOC(=O)C1=C(C)N=c2sc(=Cc3cccc(OCC(=O)O)c3)c(=O)n2C1c1ccccc1OC (stereo not given),0.673,10.8
O=c1c2ccccc2nc(NN=Cc2ccc(O)cc2)n1O,0.731,5.8
COC(=O)c1ccc(C=NOCC(=O)NCCc2ccc(OC)c(OC)c2)cc1,0.72,2.2
CC(=NNC(=O)c1ccc(Br)cc1)c1cccc(NC(=O)c2cccnc2)c1,0.738,1.5
Nc1c(C(=O)NN=Cc2ccc(Cl)cc2)cnn1-c1ccccc1,0.685,3.2

# Full records as entered above. Order of screens: Ecoli growth, UCH37 inh
# CC(=NNC(=O)Cc1cccc2ccccc12)c1ccncc1 across the screens: 0.666, 3.8
# CC1C2CC(C(CN(C)C)C2=NO)C1(C)C (stereo not given) across the screens: 0.715, 2.0

# The list continues:
SMILES,Ecoli growth,UCH37 inh
O=C(NN=Cc1ccccc1OC(F)F)NC1CCCCC1,0.693,3.3
O=C(NN=Cc1ccc(OC(=O)c2ccccc2Cl)cc1)c1ccccn1,0.717,-10.0
O=C(NN=Cc1ccc(-c2ccc([N+](=O)[O-])cc2)o1)c1ccc2c(c1)OCO2,0.706,5.9
O=C(O)c1ccc(C=NNC(=O)c2cc3ccccc3cc2O)cc1,0.624,12.4
COc1ccc(N(CC(=O)NN=Cc2cc(OC)ccc2OC)S(=O)(=O)c2ccccc2)cc1,0.654,-173.9
CCCC(=NNC(=O)CNC(=O)c1ccc(Cl)cc1)c1ccccc1,0.661,1.7
Nc1nonc1-n1nnc(C(=O)NN=Cc2ccc(OCc3ccc(F)cc3)cc2)c1COc1ccccc1,0.764,-18.2
CCOc1cc(C=N/N=C2/NC(=O)C(CC(=O)O)S2)ccc1OCc1ccc(Cl)cc1Cl (stereo not given),0.731,8.3
O=C(NN=Cc1cccnc1)c1ccccc1NS(=O)(=O)c1cccs1,0.692,5.6
CCN(CC)C(=O)COc1ccc(C(C)=NNC(=O)c2ccccc2O)cc1,0.695,5.0
CCON=C(C)c1c(O)c(CC)c(-c2ccccc2)n(-c2ccccc2)c1=O,0.696,3.2
Cc1cc(C)cc(-n2nnn(C3CC(=NNC(N)=S)C4OCC3O4)c2=S)c1 (stereo not given),0.748,-2.2
Cc1ccc(-n2[nH]c(C)c(C=Nc3cccc(C)n3)c2=O)cc1,0.724,3.1
CC(=NOC(=O)c1c(-c2ccccc2Cl)noc1C)c1cnccn1,0.739,1.5
Cc1ccc(-n2c(-c3ccccc3)cc(C=NNC(=O)CC#N)c2-c2ccccc2)cc1,0.732,-23.6
CC(=NNC(=S)NCc1ccccc1)c1ccc2c(c1)OCCO2,0.729,3.4
C(=Nn1cnnc1)C1CCCCC1,0.671,4.2
Nc1ccc(C(=O)NN=Cc2cccc(Oc3ccccc3)c2)cc1,0.686,-2.4
O=C(NN=C/C=C/c1ccc(Br)cc1)c1ccc2c(c1)OCO2,0.666,6.2
O=C(NCc1ccc(C=NNC(=O)C(=O)Nc2ccccc2Br)o1)C(=O)Nc1ccccc1,0.7,4.8

# UCH37 inh, what is marked active above.
structure,UCH37 inh
Cc1ccc(C(=O)NN=Cc2cc(Br)c(Br)o2)cn1,27.8*

# More records
SMILES,Ecoli growth,UCH37 inh
COc1ccc(C=NNC(=O)CCn2c3ccccc3c3ccccc32)cc1OC,0.687,0.3
O=C(CC(=O)NN=Cc1cccc(Cl)c1Cl)NCc1ccccc1,0.65,2.2
CCC(=NNC(=O)c1cccnc1)c1ccc2c(c1)OCCO2,0.652,5.3
CC(CC(=O)NC(C)c1ccccc1)=NNC(N)=S (stereo not given),0.728,1.7
Cc1cc([N+](=O)[O-])ccc1-c1ccc(C=NNC(=O)c2ccc(Br)o2)o1,0.711,8.1
CC(=NNC(=O)CN1CCCCC1)c1cccc([N+](=O)[O-])c1,0.628,1.7
CCC(C)C(C)=NNC(=O)CNS(=O)(=O)c1ccc([N+](=O)[O-])cc1 (stereo not given),0.682,-0.2
O=C(NN=Cc1ccc(N2CCOCC2)c([N+](=O)[O-])c1)c1ccc(F)cc1,0.646,5.4
CCCOc1ccccc1C=NNC(=O)C1CC1,0.686,0.3
COc1cc(C(=O)NN=Cc2ccccn2)cc(OC)c1OC,0.665,5.8
O=C(NN=Cc1cccc(F)c1)c1cc(-c2ccco2)nc2ccccc12,0.718,-37.4
CCC(Cc1ccccc1)=NNC(=O)c1cccc(Br)c1,0.725,-1.5
Cc1nn(-c2ccccc2)c(C)c1C=Nn1c(-c2ccc(Cl)cc2)n[nH]c1=S,0.664,3.8
COc1cccc(C(=O)NN=c2oc3c(OC)cccc3cc2C(=O)NCc2ccccc2)c1,0.653,-0.2
CC(=NNC(=O)c1cccc(S(=O)(=O)N2CCOCC2)c1)c1ccco1,0.656,6.7
O=C(Cn1cnc([N+](=O)[O-])n1)NN=Cc1cccc(Cl)c1,0.671,2.3
Cc1cc(C(=O)NN=Cc2ccc(N(C)C)cc2)c2ccccc2n1,0.726,11.0
Fc1cccc(C=NNc2ccc(Cl)nn2)c1,0.633,0.9
COc1cc(C(=O)NCC(=O)NN=Cc2ccc(-c3ccc([N+](=O)[O-])cc3)o2)cc(OC)c1OC,0.715,7.8
Clc1cccc(-c2ccc(C=Nn3cnnc3)o2)c1Cl,0.688,5.1
O=C(NN=Cc1ccccc1)c1ccc(NC(=O)c2ccc(F)cc2)cc1,0.701,3.4
Cc1ccc(C(=O)ON=Cc2c(Cl)n(C)c3ccccc23)cc1,0.747,1.3
CC1CCc2sc(C(=O)NN=CC3CCCCC3)cc2C1 (stereo not given),0.662,1.3
CCCOc1ccc(-c2c(C(=O)NN=C(C)c3cccs3)nnn2-c2nonc2N)cc1,0.686,-2.4
CCN1C(=O)/C(=C2/Sc3ccccc3N2CC)SC1=Nc1ncn[nH]1,0.699,3.0
CON=C/C(C#N)=C/c1ccc(OC)c(OC)c1,0.686,11.4
Cc1ccsc1C(=O)NN=Cc1ccc2c(c1)OCO2,0.719,0.1
CC(CC(=O)Nc1ccc(N(C)C)cc1)=NNC(=O)Cc1csc(N)n1,0.735,6.1
Cc1cccc(C)c1NC(=S)NN=Cc1ccc(OCCC(C)C)cc1,0.711,5.1
COc1cc(C=NNC(=O)c2ccncc2)ccc1OC(=O)c1ccc([N+](=O)[O-])cc1,0.704,5.0
COc1ccc(C=NNc2cc(C)nc3c(C)cccc23)cc1,0.6,-33.7
COc1cccc(NC(=O)c2cc3ccccc3oc2=NO)c1,0.619,3.9
CNc1nc(NN=Cc2cc([N+](=O)[O-])ccc2F)nc(Nc2ccccc2)n1,0.669,4.9
COc1ccc(C=NNS(=O)(=O)c2ccccc2)cc1OC,0.633,7.1
O=[N+]([O-])c1ccc(-c2ccc(C=NNc3nc(N4CCCC4)nc(N4CCCC4)n3)o2)cc1,0.681,-0.4
CCOc1ccc(CNC(=S)NN=Cc2ccc([N+](=O)[O-])cc2)cc1,0.757,3.5
O=C(Cc1n[nH]c(=O)[nH]c1=O)NN=Cc1ccccc1O,0.66,0.9
Cc1ccc(C(=O)NN=c2oc3ccccc3cc2C(N)=O)cc1,0.659,5.6
CC(=NO)c1c(O)cc(-c2ccccc2)n(-c2ccccc2)c1=O,0.703,1.3
O=C(C[n+]1ccccc1)NN=Cc1cc(Br)cc(Br)c1O,0.6,4.3
CC(=NNC(=O)c1cc(C)[nH]n1)c1ccco1,0.704,7.7
COc1ccccc1C=Nn1c(N)c(C(=O)NC2CCCCC2)c2nc3ccccc3nc21,0.716,-333.4
O=C(O)c1ccc(NN=CC2=Cc3ccccc3OC2)cc1,0.674,7.7
CN(C)c1ccc(C=NNC(=O)C2CC2c2ccccc2)cc1 (stereo not given),0.646,-58.0
CC=NNC(=O)CCCC(=O)NN=CC,0.636,2.2
CCOc1cc(C=NOC(C)=O)ccc1OCc1ccccc1,0.678,8.6
Cc1ncc(CO)c(C=NNC(=O)c2cc3c(s2)CCCC3)c1O,0.699,-185.9
CCCC(=NNC(=O)c1ccc2c(c1)OCO2)c1cccs1,0.659,2.9
CC(=O)N/C(=N/c1nc(C)cc(C)n1)Nc1ccc(Cl)cc1Cl,0.694,3.4
Cc1[nH]n(-c2ccccc2)c(=O)c1C=Nc1nn[nH]n1,0.644,11.2
Cc1c(C=NNC(=O)c2ccc(O)cc2)c2ccccn2c1C(=O)c1ccc(F)cc1,0.69,-9.4
CCN(CC)S(=O)(=O)c1ccc(NN=Cc2cc(OC)c(OC)cc2OC)nc1,0.694,-134.6
COc1ccc(C=NNC(=O)C[n+]2ccccc2)c(OC)c1OC,0.698,3.6
O=C(NN=Cc1c(Cl)cccc1Cl)c1ccccc1F,0.701,4.0
CC(=O)NC(C)(C)C1CC=C(C)C(=NO)C1 (stereo not given),0.673,0.8
CC(=NNC(=O)c1ccc(CN2CCOCC2)cc1)c1ccc([N+](=O)[O-])cc1,0.716,1.3
CC(=NNC(=O)c1cccc(S(=O)(=O)N2CCOCC2)c1)c1ccc(OCC(=O)N(C)C)cc1,0.664,4.3
CC(=O)NN=C(C)C1COc2ccccc2O1 (stereo not given),0.647,1.6
CC(C)(C)NC(=O)CCN(N=Cc1ccccc1)C1=NS(=O)(=O)c2ccccc21,0.626,3.7
